StopGo FLuc – lowers the firefly signal of an FMDV 2A StopGo reporter; HEK cells with a luciferase reporter of 2A StopGo recoding; Potency, µM (doses to about 57.5 µM), for inactives: top-dose signal change, negative = less light; 0.23% of 120,000 active; AID 1745856; active = well fitted falling curve with a large enough effect; inconclusive = small, poorly fitted or top-dose-only effect; inactive = no such curve, though single readings can be large or run the other way; further: nearly all actives have a fitted effect of over 60% in size; overnight with compound
2A Renilla – FMDV 2A StopGo reporter, Renilla signal; AID 1745857; 0.32% of 120,000 active; Potency, µM (doses to about 57.5 µM), without a hit: top-dose signal change, negative = less light; HEK cells with a luciferase reporter of 2A StopGo recoding; active means well fitted falling curve with a large enough effect; inconclusive means small, poorly fitted or top-dose-only effect; inactive means no such curve, though single readings can be large or run the other way; further: nearly all actives have a fitted effect of over 55% in size; overnight with compound
Starred values were filed as active, the others as inactive; u = inconclusive; & = joins results of further samples; [ ] = dose if it differs, or a comment. On the % scale 0 is the no-effect control and ±100 the full control effect; potency means the concentration at half of the fitted maximal effect.

SMILES | StopGo FLuc | 2A Renilla
Cc1ccc(OCC(=O)Nc2ccc3c(C)cc(=O)oc3c2)cc1C | 3.9% | -12.5%
O=C(N/N=C/c1cccc(Cl)c1Cl)C1CC1 | 85.6%[activator] | -4.6%[1.06 µM]
COCC(C)NC(=O)CCC1CCCO1 (stereo not given) | -5.7% | -4.8%
Cc1ccc(CNC(=O)CCc2nnc3n(C)c(=O)c4sccc4n23)cc1 | 3.6% | -7.5%
Cc1ccc(C)c(C(=O)Nc2ccc(N(C)C)cc2)c1 | 70.8%[activator] | 17.2%
CCCCn1c(=O)[nH]c(=O)c2c1nc(COC(=O)Cc1ccccc1)n2CCC | 2.2% | 0.2%
COc1ccc(N2CCN(C(=O)C3CCN(S(=O)(=O)c4cccc5nonc45)CC3)CC2)cc1 | -11.4% | -2.4%
COc1ccc(N2CCN(CCCNC(=O)c3cnn(-c4ccc(F)cc4)c3-n3cccc3)CC2)cc1 | 27.7% | 4.3%
CC(OC(=O)c1cccc(S(=O)(=O)N2CCOCC2)c1)C(=O)c1c[nH]c2ccccc12 (stereo not given) | -18.8% | 12.5%
CC(=O)c1ccc(NC(=O)CSc2nnc(Cc3cccn3C)n2-c2ccc(F)cc2)cc1 | -3.7% | 159.8%[activator]
CCc1ccc(C(=O)c2cn(CC(=O)Nc3ccc(F)cc3)c3ccc(OC)cc3c2=O)cc1 | 0.0% | -3.8%
Cc1cccc(NC(=O)CSc2nc3ccccc3nc2N2CCOCC2)c1C | -5.5% | 7.3%
Cc1cc(C)cc(-n2ccn(CC(=O)Nc3cc(C)ccc3C)c(=O)c2=O)c1 | -16.0% | -7.3%
COc1ccc(NC(=O)c2cc(Cl)c(O)c(OC)c2)c(OC)c1 | 19.9% | 0.4%
COc1ccc(CN(C(=O)Nc2cc(C)ccc2C)C2CCN(C(C)=O)CC2)cc1 | -22.3% | 5.2%
CC1(C)CN=C(SCc2ccccc2)NC1 | 0.7% | -3.7%
Cc1oc2ncnc(N3CCOCC3)c2c1C(=O)NCc1ccccc1 | -13.4% | 3.4%
Clc1cccc(Cl)c1CO/N=C/c1ccc(OCc2ccccc2)cc1 | 50.2%[activator] | -4.3%
Cc1cc(C)c2c(CC(=O)Nc3ccc(S(=O)(=O)N4CCCCC4)cc3)coc2c1 | -8.3% | 45.3%[activator]
CC(C)CN(C(=O)Cn1cnc2c1c(=O)n(C)c(=O)n2C)c1nc2ccccc2s1 | 141.5%[activator] | 12.2%
O=C(Cn1cc(SCc2c(F)cccc2Cl)c2ccccc21)N1CCCCC1 | 38.1%[activator] | 20.5%
COC(=O)c1sc(=S)n(-c2ccc(C(C)C)cc2)c1N | 1.0% | 1.8%
COc1ccccc1CCNC(=O)CSc1ccc(-c2ccccn2)nn1 | 6.0% | -9.9%
Nc1nccnc1C(=O)NCC(O)c1cccc(Cl)c1 (stereo not given) | 150.1%[activator] | -6.3%
COc1ccc(C2C=C(c3ccccc3)Nc3nc(NC(=O)/C=C/c4ccccc4)nn32)cc1 (stereo not given) | 20.8% | 5.9%
COc1ccccc1C1C2=C(CC(C)(C)CC2=O)Nc2ccccc2N1C(C)=O (stereo not given) | -0.5% | 52.0%[activator]
Cc1ccc2nc(CC(C)(C)CC(=O)O)c[n+]([O-])c2c1 | 2.3% | 15.4%
CCOC(=O)c1c(S(=O)(=O)N2CCC(C(=O)NCc3ccccc3Cl)CC2)c(C)n(C)c1C | -1.0% | 89.9%[activator]
Cc1c(C#N)c(N)nc2c3c(sc12)NC(=O)CC3c1ccc(Cl)cc1 (stereo not given) | 5.0% | 19.4%
CCC(C)NC(=O)CSc1ccccn1 (stereo not given) | 11.9% | -0.5%

5 compounds picked at random from the list so far, as already listed:
SMILES | StopGo FLuc | 2A Renilla
Nc1nccnc1C(=O)NCC(O)c1cccc(Cl)c1 (stereo not given) | 150.1%[activator] | -6.3%
COC(=O)c1sc(=S)n(-c2ccc(C(C)C)cc2)c1N | 1.0% | 1.8%
CC(C)CN(C(=O)Cn1cnc2c1c(=O)n(C)c(=O)n2C)c1nc2ccccc2s1 | 141.5%[activator] | 12.2%
CC1(C)CN=C(SCc2ccccc2)NC1 | 0.7% | -3.7%
CCC(C)NC(=O)CSc1ccccn1 (stereo not given) | 11.9% | -0.5%

The list goes on.
SMILES | StopGo FLuc | 2A Renilla
CCCSc1nnc2n(-c3cccc(C)c3)c(=O)c3c4c(sc3n12)CCCC4 | -9.3% | -10.1%
CCOC(=O)c1cc(-c2ccccc2)n(CC(=O)N(C)c2ccc(OC)cc2)c1C | -24.8% | 23.1%
CCOc1ccc(CNC(=O)C2CCN(S(=O)(=O)c3cn(C)cn3)CC2)cc1OC | -13.3% | -4.3%
COC(=O)C(O)(c1ccc(NC(=O)c2ccc(F)cc2)cc1)C(F)(F)F (stereo not given) | 97.3%[activator] | 1.6%
COc1ccc(CNC(=O)Cn2nc(-c3ccc(OC)c(OC)c3)ccc2=O)cc1OC | 11.5% | -4.2%
Cc1ccc(-c2nn(CC(=O)NC3CC3)c(=O)c3ccccc23)cc1 | 28.7% | -7.6%
CCOC(=O)c1ccc(N2C(=O)c3[nH]nc(-c4ccc(OC)cc4)c3C2c2ccc(C)cc2)cc1 (stereo not given) | u | -35.4%
COC(=O)c1scc(-c2ccccc2)c1S(=O)(=O)Nc1ccc(C)c(Cl)c1 | -3.1% | 388.3%[activator]
Cc1cccc(N2CCN(S(=O)(=O)c3ccc4oc(=O)c5ncn(C)c5c4c3)CC2C)c1 (stereo not given) | -12.7% | -1.4%
C=CCNC(=O)NC(=O)CN(CC)c1cc(C)cc(C)c1 | -4.0% | 7.1%
Cc1cccc(-n2nnc(-c3nc(-c4ccccc4)no3)c2N)c1C | 96.3%[activator] | -12.2%
CCN(CC)C(=O)c1c(NC(=O)c2ccccc2F)sc2c1CCC(C)C2 (stereo not given) | 21.7% | 96.0%[activator]
CCOC(=O)N1CCc2c(sc3c2C(=O)NC(c2cc(OC)c(O)c(OC)c2)N3)C1 (stereo not given) | 3.3% | -5.2%
CC(NC(=O)c1cccc(F)c1)C12CC3CC(CC(C3)C1)C2 (stereo not given) | 4.7% | 17.9%
COC(=O)c1ccccc1NC(=O)CSc1nc2ccccc2nc1Cc1ccccc1OC | -22.2% | -17.5%
C=CCNC(=O)NC(=O)COC(=O)c1c(C)c(CC)nc2ccccc12 | 17.8µM* | 25.1µM*
Cc1ccc(CCNC(=O)CS(=O)Cc2nc(-c3ccccc3Cl)oc2C)cc1 (stereo not given) | -13.1% | 6.5%
NS(=O)(=O)c1ccc(Nc2nc(-c3ccccc3)cs2)cc1 | 140.0%[activator] | -1.8%
CCN(CC)CCNC(=O)c1ccc(CN2CC(=O)N3CCCC3C2=O)cc1 (stereo not given) | -10.9% | -11.6%
O=S(=O)(Nc1cccc2c1CCCC2)c1ccccc1 | 180.1%[activator] | 120.9%[activator]
CCC(C(=O)NCc1ccc(OC)c(OC)c1)n1nc(C)c2c(C)n(-c3ccc(C)cc3)nc2c1=O (stereo not given) | -3.0% | -1.8%
CCCn1c(NC(=O)CCOc2ccc(C)cc2)nc2ccccc21 | 0.0% | 104.1%[activator]
N#CC1(C(=O)Nc2ccc(Br)cc2)CCCC1 | 36.6%[activator] | 14.1%
CCCCOC(=O)C[N+](C)(C)C/C=C(/C)Cl | 3.1% | 3.7%
COc1ccc(CCNC(=O)c2c(C)oc3nc(C)nc(N4CCOCC4)c23)cc1OC | -18.7% | -9.6%
O=C(CN1C(=O)CCc2cc(S(=O)(=O)N3CCOCC3)ccc21)NCc1ccccc1Cl | 6.3% | 6.5%
CNc1ccc(Oc2ccccc2)cc1 | 28.9% | 4.8%
COc1cc(/C=C/c2nc(C#N)c(NCCN3CCOCC3)o2)cc(OC)c1OC | 0.0% | 25.9%
O=C(NCc1cccnc1)C1CCN(C(=O)c2cccc(C(F)(F)F)c2)CC1 | 10.3% | -10.1%
CC(C)(C)c1ccc(OCC(=O)N2CCN(Cc3nc(N)c4ccccc4n3)CC2)cc1 | 22.8% | -12.4%
Cn1nc(C(=O)Nc2ccccc2Br)c2ccccc2c1=O | 16.3% | -1.9%
CCC(C)NC(=O)Cn1c(=O)n(Cc2ccc(C(=O)NCCCOC)cc2)c(=O)c2ccccc21 (stereo not given) | 3.1% | -0.6%
CCC1c2ccsc2CCN1C(=O)/C=C/c1cccc(C)c1 (stereo not given) | 15.4% | 62.2%[activator]
COc1ccc2c(C)c(CC(=O)NCc3cccc(Cl)c3)c(=O)oc2c1C | 6.1% | -3.1%
CC(=O)N1c2ccc(S(=O)(=O)NCCC(=O)N(C)Cc3ccco3)cc2CC1C (stereo not given) | 27.6% | 91.9%[activator]
CN1NC2(CCCCC2)N(c2ccccc2)C1=S | 12.1% | 16.8%
Oc1cccc2[nH]ccc12 | 24.3%[11.5 µM] | 22.8%
Cc1cccc(N2CCN(CCCNC(=O)c3nnc(Cc4c(F)cccc4Cl)o3)CC2C)c1 (stereo not given) | -2.8% | -7.0%
CCC1=Nc2cc(C(=O)NCCCOC(C)C)ccc2Sc2ccc(C)cc21 | -0.9% | 79.2%[activator]
CCc1ccc(-c2nc(SC(C(=O)N3CCCC3)c3ccccc3)n[nH]2)cc1 (stereo not given) | u | u
CCC(=O)Nc1cccc(-c2nc3ccccc3o2)c1 | 131.1%[activator] | 7.6%
COc1ccc2[nH]c(C(=O)N3CCN(Cc4ccccc4)CC3)cc2c1OC | 10.0% | -15.5%
Cc1ccc(NC(=O)COC(=O)c2cc(=O)[nH]c3ccccc23)cc1 | -0.5% | -12.6%
CN(C)C(CNC(=O)/C=C/c1ccccc1)c1ccsc1 (stereo not given) | 39.4%[activator] | 23.2%
COc1ccc(C(=O)Nc2ccc3c(c2)CCCN3S(=O)(=O)c2ccc(C)cc2)c(OC)c1 | 10.6% | 84.3%[activator]
CCOC(=O)c1ccc(NC(=O)C2=C(C)Nc3nc(CCCO)nn3C2c2ccc(OC)cc2)cc1 (stereo not given) | 16.1%&-4.8% | 20.6%&-7.3%
O=C(CSc1ncnc2sc3c(c12)CCC3)Nc1ncc(C(F)(F)F)cc1Cl | 4.7% | -6.0%
C[N+](C)(C)CCOC(=O)CCC(=O)O | -5.8% | -1.6%
COc1ccc(-c2nsc(NC(=O)C(C)Oc3ccc(Cl)c(C)c3)n2)cc1 (stereo not given) | u | u
CCOC(=O)CSc1nc2c([nH]c3ccccc32)c(=O)n1-c1ccc(OC)cc1 | -16.4% | -16.2%
COc1cccc(-c2nc(SCc3cc(=O)n4cc(C)sc4n3)n[nH]2)c1 | -3.2% | -10.4%
O=C(O)c1cccc(-c2ccc(CNC3CCCC3)o2)c1 | 92.5%[activator] | 18.4%
O=C(Nc1cc(Cl)ccc1Cl)c1cc(S(=O)(=O)N2CCc3ccccc3C2)ccc1F | -7.1% | -4.8%
O=C(Nc1ccc2nc3n(c(=O)c2c1)CCCCC3)C(=O)Nc1ccccc1F | 115.5%[activator] | 2.0%
COc1ccc(CNC(=O)CCCn2nc(C)n3c(cc4sccc43)c2=O)cc1 | -9.3% | -8.0%
O=c1c(N2CCN(c3cccc(C(F)(F)F)c3)CC2)csc2ccccc12 | 77.1%[activator] | 80.8%[activator]
Cc1ccc2occ(CC(=O)N(Cc3ccc(C(C)C)cc3)C3CCS(=O)(=O)C3)c2c1 (stereo not given) | -24.1% | -15.6%
Cc1ccc(Nc2nc(NC3CCCCCC3)nc3c2cnn3-c2ccccc2)cc1 | 14.9% | -5.4%
Cc1nc(-c2ccc3c(c2)Cc2ccccc2-3)cs1 | 202.1%[activator] | -7.1%
CNC(=O)CNC(=O)c1cc(-c2cccs2)nc2ccccc12 | 18.1% | 14.6%

Next section:
SMILES | StopGo FLuc | 2A Renilla
Cc1ccc(CN(C)c2cc(C(=O)N3CCOCC3)c3ccccc3n2)cc1 | -9.7% | 44.0%[activator]
O=C(c1nn(Cc2ccccc2)c(=O)c2ccccc12)N1CCN(c2ccccc2O)CC1 | 33.1%[activator] | 112.9%[activator]
CCc1ccccc1NC(=O)C(=O)c1c[nH]c2ccccc12 | 0.0% | -17.0%
CCc1ccc(N(CC)C(=O)Cn2cnc3sc(C)c(S(=O)(=O)N4CCN(c5ncccn5)CC4)c3c2=O)cc1 | -9.3% | -4.5%
COCCn1c(N2CCC(C)CC2)nc2c1c(=O)[nH]c(=O)n2C | -4.6% | -3.7%
COC(=O)c1c(-c2cccs2)csc1NC(=O)COc1ccc(C(C)(C)C)cc1 | -5.3% | -6.7%
COc1ccc(C2=C(C)C(N3CCC(C(=O)NC4CCCCC4)CC3)=NS2(=O)=O)cc1 | 7.7% | 3.7%
CC(C)Cn1c(=O)c2ccccc2n2c(CCC(=O)Nc3ccc(F)cc3)nnc12 | 9.8% | -4.0%
CC(=O)Nc1ccc(NC(=O)CC2Sc3ccc(C(F)(F)F)cc3NC2=O)cc1 (stereo not given) | 13.7% | 11.4%
Cc1ccc(O)c(NC(=O)CCSc2nc(-c3ccco3)cc(C(F)(F)F)n2)c1 | -4.4% | 31.0%[activator]
COc1ccc(C(=O)N2CCN(C(=O)COc3ccc(C)cc3)CC2)cc1OC | 9.8% | 34.1%[activator]
CCOC(=O)Cn1cc(CN2C(C(=O)OC)CN(Cc3ccc(F)cc3)CCS2(=O)=O)nn1 (stereo not given) | 5.3% | 13.1%
O=C(NCCc1csc(-c2ccc(F)cc2)n1)c1ccco1 | 1.3% | -10.2%

4 entries from above, with values under each structure.
The line under a structure holds: StopGo FLuc, 2A Renilla
> CC(=O)Nc1ccc(NC(=O)CC2Sc3ccc(C(F)(F)F)cc3NC2=O)cc1 (stereo not given)
 : 13.7%, 11.4%
> Cc1ccc(O)c(NC(=O)CCSc2nc(-c3ccco3)cc(C(F)(F)F)n2)c1
 : -4.4%, 31.0%[activator]
> COc1ccc(C(=O)N2CCN(C(=O)COc3ccc(C)cc3)CC2)cc1OC
 : 9.8%, 34.1%[activator]
> CCOC(=O)Cn1cc(CN2C(C(=O)OC)CN(Cc3ccc(F)cc3)CCS2(=O)=O)nn1 (stereo not given)
 : 5.3%, 13.1%

Screens (PubChem)
